# Compound activity: PubChem BioAssay, ICCB-Longwood Screening Facility, Harvard Medical School
# HCMV NEC inh: inhibitors of HCMV UL50-UL53 nuclear egress complex interaction. HTRF UL50-UL53 interaction, normalized percent inhibition. inhibition, % (concentration not given with the values). hit rate 0.15% among 190,000;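 active means both replicates at 50% or more, plus weaker picks with an unusually low signal ratio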;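 further: stock transfer was 100 nL into about 20 µL; 0% = negative control wells and 100% = wells with untagged competitor protein; inactives centre near -12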
# Starred values were filed as active, the others as inactive; & = joins results of further samples. This is a subset; rates above refer to the full screens.
molecule | HCMV NEC inh
CC(Cc1cc2c(c(C(N)=O)c1)N(CCCO)CC2)NCCOc1ccccc1OCC(F)(F)F (centres undefined) | -6
O=C(CC1CCCCCC1)N1CCC(n2cc(-c3ccccn3)nn2)CC1 | 4
Cc1cc2c(cc1S(N)(=O)=O)S(=O)(=O)CCC2 | -2
CC1=C(C(=O)OC(C)C)C(c2cccc([N+](=O)[O-])c2)C(C(=O)OC2CN(C(c3ccccc3)c3ccccc3)C2)=C(N)N1 (centres undefined) | -1
O=C(CSc1nc2c(c(=O)n1-c1ccccc1)SCC2)NC1CCCCC1 | 10
CN(C)C1=NC(=O)C(=Cc2ccc(-c3ccc(S(N)(=O)=O)cc3)o2)S1 | -30
C=CCn1c(C(C)NC(=O)c2ccccc2)nc2ccccc21 (centres undefined) | -11
O=C1S/C(=C\c2ccccc2)C(=O)N1c1ccc(O)cc1 | -36

molecule | HCMV NEC inh
CCC(=O)NCCc1nc2ccccc2n1Cc1ccccc1 | -5
CO[C@H]1C[C@@H]2CC[C@@H](C)[C@@](O)(O2)C(=O)C(=O)N2CCCC[C@H]2C(=O)O[C@H](C(C)C[C@H]2CC[C@@H](O)[C@H](OC)C2)CC(=O)[C@H](C)/C=C(\C)[C@@H](O)[C@@H](OC)C(=O)[C@H](C)C[C@H](C)/C=C/C=C/C=C/1C (some centres undefined) | -32
Cc1ccc(-c2csc(NC(=O)c3coc4ccccc4c3=O)n2)o1 | -7
CC(C)(C)c1cc(-c2nnc(-c3cccs3)o2)n(Cc2ccc(F)cc2)n1 | 12
CCOc1cccc2cc(C(N)=O)c(=Nc3ccc(F)cc3)oc12 | -7
CCCCC[C@H](O)/C=C/[C@@H]1[C@H](CCCCCCC(=O)O)[C@@H](O)C[C@H]1O | -14&-14
COC(=O)C1=C(C)NC(C)=C(C(=O)NCCCN2CCC(c3ccccc3)(c3ccccc3)CC2)C1c1ccc([N+](=O)[O-])cc1 (centres undefined) | -30
COc1ccccc1C(=O)Nc1nnc(-c2ccccc2Cl)s1 | -18

molecule | HCMV NEC inh
COc1ccc(Cc2cnc(N)nc2N)cc1OC | -73
Nc1nc(F)nc2c1ncn2[C@@H]1O[C@H](CO)[C@@H](O)[C@@H]1O | -3&-58
CCCN1C(=O)/C(=C2\SC(=S)NC2=O)c2cc(Br)ccc21 | 1
COc1cc(OC2(C(=O)O)CCSCC2)ccc1CN1CCCNCC1 | -9
O=C(CCC/C=C\C[C@H]1C(=O)C[C@@H](O)[C@@H]1/C=C/[C@@H](O)CCc1ccccc1)NC(CO)CO | 5&5
CCC(=C(c1ccccc1)c1ccc(OCCN(C)C)cc1)c1ccccc1 | -19&-31
Cc1ccc(N2C(=O)C3C4C=CC(O4)C3C2=O)cc1 (centres undefined) | 6
O=C(CC(=O)c1ccccc1)Nc1ccc2c(c1)OCCO2 | -13

# Part of the list above, as labelled records.
> CCC(=C(c1ccccc1)c1ccc(OCCN(C)C)cc1)c1ccccc1
  HCMV NEC inh: -19&-31
> Cc1ccc(N2C(=O)C3C4C=CC(O4)C3C2=O)cc1 (centres undefined)
  HCMV NEC inh: 6

# Remaining list, next part:
molecule | HCMV NEC inh
FC(F)Oc1ccc(-c2nc3c(cnn3Cc3cccs3)[nH]2)cc1 | -10&-10
O=C(CSc1ccc2nnc(-c3ccccc3)n2n1)N1CCCC1 | -6
O=C(O)C1CCN(C(=O)C(F)(F)F)CC1 | -16
COc1ccc(OC)c(S(=O)(=O)N2CCc3ccccc3C2)c1 | -6
CCc1nc2sc3c(c2c2nncn12)CCCC3 | -15
COc1ccc(S(=O)(=O)N2CCCCCC2)cc1C(=O)O | -10
COC(=O)C(C)Sc1ncnc2c1oc1ccccc12 (centres undefined) | -11
N#CC1=C(SCC(=O)N(c2ccccc2)c2ccccc2)NC(=O)CC1c1ccco1 (centres undefined) | -2

molecule | HCMV NEC inh
CC(C)(C)C(=O)NCC12CC3CC(CC(C3)C1)C2 | 4
N#C/C(=C\c1cc(Cl)cc(Cl)c1)c1cccnc1 | -23
O=C(C=Cn1cnc(-c2cc(C(F)(F)F)cc(C(F)(F)F)c2)n1)N1CC(F)(F)C1 | -7
Clc1ccccc1CSc1cnc2ccccc2n1 | 8
COC(=O)Nc1sc(-c2ccccc2)nc1-c1ccccc1 | -14
O=S1(=O)CCC(NS(=O)(=O)/C=C/c2ccccc2)C1 (centres undefined) | -13
CN(c1ccccc1CNc1nc(Nc2ccc3c(c2)CC(=O)N3)ncc1C(F)(F)F)S(C)(=O)=O | -22&-18&-10
COc1ccc(NC(=O)CC2SC(N)=NC2=O)cc1 (centres undefined) | 1

molecule | HCMV NEC inh
O=C1NC(=O)c2c1c1c3ccccc3[nH]c1c1[nH]c3cc(Br)ccc3c21 | -13
CC(C(=O)O)N1C(=O)C2C3C=CC(C3)C2C1=O (centres undefined) | 0
CCOc1cc(OCC)c2c(-c3ccccc3)cc(=O)oc2c1 | -10
Cc1ccc(NCC(O)Cn2c(C)c(C)c3ccccc32)cc1 (centres undefined) | 0
N#CC1=C(SCC(N)=O)NC(=O)CC1c1ccccc1Cl (centres undefined) | -25
CC(C)c1nc(CN(C)C(=O)NC(CCN2CCOCC2)C(=O)NC(CCC(Cc2ccccc2)NC(=O)OCc2cncs2)Cc2ccccc2)cs1 (centres undefined) | 5
CN(C(=O)c1cc2ccccc2oc1=O)C1CCS(=O)(=O)C1 (centres undefined) | -7
CCOC(=O)c1ccc(NC(=O)c2cc(=O)c3ccccc3o2)cc1 | -29

molecule | HCMV NEC inh
OC[C@@H](O)[C@H](O)[C@@H](O)[C@H](O)CO | -33
O=C1CN(c2ncnc3nc[nH]c23)CCN1C1CCCCC1 | 11
COCc1ccc(CN2CCC3(CC2)C(=O)N(C2Cc4ccccc4C2)C(=O)N3CC(C)C)o1 | -2
CCCCCC(=O)/C=C/C=O | -1&-1
O=C(Nc1cc(C(F)(F)F)cc(C(F)(F)F)c1)c1cc(Cl)ccc1O | -34&4&9
COc1cccc2c(=O)n(CC(=O)N3CCc4ccccc43)ccc12 | 5
Nc1nc(SCC(=O)NCCO)nc2sc3c(c12)CCCC3 | -3
CCCc1cc2c(=O)c(-c3ccccn3)c(C)oc2cc1OC(C)=O | -18

molecule | HCMV NEC inh
CCOc1ccc2c3c(c(=O)oc2c1)CCC3 | -4
CCCSc1nc2c(c(=O)n1-c1ccc(F)cc1)SCC2 | 4
O=C(Nc1nccs1)c1ccc(-c2nc3ccccc3s2)s1 | -6
CCCCNC(=O)[C@@H]1C[C@H](CN2CCOCC2)CN(Cc2ccccc2)C1 | 0
O=C1C2CCCCC2C(=O)N1CCCCN1CCN(c2nsc3ccccc23)CC1 (centres undefined) | -26
O=C1OC(c2ccco2)=N/C1=C\c1cccc(Cl)c1Cl | -22
O=C(Nc1nc2sc3c(c2c(=O)s1)CCCC3)c1ccccc1 | -18
CCCCC(=O)Nc1nnc(-c2c(C)c(C)cc(C)c2C)s1 | -7

molecule | HCMV NEC inh
Cc1cc2cc(CNC(=O)CCC3CCCC3)ccc2[nH]1 | -9
COC(=O)c1ccccc1C(=O)N1CCNC(=O)C1Cc1ccccc1 (centres undefined) | -7
Cc1csc(NC(=O)c2cccn(OCc3ccccc3)c2=O)n1 | -14
COC(=O)c1c(NC(=O)C2CCOC2)c2cc(NC(C)CO)cnc2n1CCCc1ccccc1 (centres undefined) | -17
CN(C)C(=O)/C(=C\c1ccco1)NC(=O)c1ccccc1 | -32
O=C1C=C(O)c2nc(-c3ccccc3)cc(C(=O)O)c2C1=O | -45
O=C(NCCO)c1cccc(-c2cc(Nc3ccc(OC(F)(F)F)cc3)ncn2)c1 | -4
O=C(Cc1ccccc1)Nc1nnc(-c2ccccc2Cl)s1 | -16

molecule | HCMV NEC inh
O=C(CSc1ccc2nnc(-c3ccccc3)n2n1)Nc1ccccc1 | -1
CSc1oc(-c2cccs2)nc1S(=O)(=O)c1ccccc1 | -12
CCN(CC)C(=O)c1cc2c(=O)c3cc(Cl)ccc3oc2nc1C | -60
Fc1cccc(Cl)c1CSc1ncnc2ccccc12 | 11
C[C@H](NC(=O)Cc1ncc(C(F)(F)F)cc1Cl)c1ccccc1 | -3
C=CCN1C(=O)/C(=C2/C(=O)N(CC(=O)Nc3ccccc3Cl)c3ccccc32)SC1=S | 1
COc1cccc2cc(C(=O)NCCc3ccccc3)c(=O)oc12 | -19
COCCN1C(=O)c2oc3ccccc3c(=O)c2C1c1ccc(C)cc1 (centres undefined) | -4

# Some of these compounds in order of heavy-atom count, rising.
molecule | HCMV NEC inh
Fc1cccc(Cl)c1CSc1ncnc2ccccc12 | 11
C[C@H](NC(=O)Cc1ncc(C(F)(F)F)cc1Cl)c1ccccc1 | -3
C=CCN1C(=O)/C(=C2/C(=O)N(CC(=O)Nc3ccccc3Cl)c3ccccc32)SC1=S | 1

# Following part.
molecule | HCMV NEC inh
O=C(C1CCCCCC1)N1CCC(n2cc(-c3ccsc3)nn2)CC1 | -18
O=C(OCc1ccco1)c1cc2cc(Br)ccc2oc1=O | -21
NCc1cn2ccccc2n1 | -18
CC1CCC(C(C)C)C(OCC(O)CN2CC(C)OC(C)C2)C1 (centres undefined) | -4
CCC(CC)C(=O)Nc1c2c(nn1-c1ccc(Cl)cc1)CSC2 | -24
O=C1Nc2ccc(Cl)cc2S/C1=C/Nc1ccccc1 | 1
C[N+](C)(C)CC[N+]1(C)Cc2c(Cl)c(Cl)c(Cl)c(Cl)c2C1 | -1
CCOC(=O)c1csc(NC(C)=O)n1 | 2

molecule | HCMV NEC inh
CCOc1ccc(S(=O)(=O)NCCO)cc1 | 3
O=C(Nc1cn[nH]c1-c1nc2ccc(CN3CCOCC3)cc2[nH]1)NC1CC1 | -4&8&-1&-5
COC(=O)c1ccc(/C=C2\SC(=S)N(c3cccc(OC)c3)C2=O)cc1 | -12
CCN1CCN(Cc2ccc(NC(=O)c3ccc(C)c(NC(=O)c4ccno4)c3)cc2C(F)(F)F)CC1 | -15
O=C(CSCC(=O)N1CCCC1)Nc1nc(-c2ccccc2)cs1 | -8
Cc1nc2cc(C(=O)N(C)Cc3cc(-c4cccnc4)no3)ccc2s1 | -15&-15
O=C(O)CCCC[C@@H]1SC[C@@H]2NC(=O)N[C@@H]21 | -15
CCOc1ccc(S(=O)(=O)NCc2ccncc2)cc1 | -5

molecule | HCMV NEC inh
COc1ccc(CNc2ncnc3c2cnn3-c2ccccc2)cc1 | -4
Cc1sc(NC(=O)c2ccco2)c(CN2CCN(c3ccccn3)CC2)c1C | 13&2
C=C(C)COc1ccc2c3c(c(=O)oc2c1)CCC3 | -15
COc1ccc(CNc2nc(NCc3ccc(OC)cc3)c3[nH]cnc3n2)cc1 | -15
CCCCC[C@H](O)/C=C/[C@H]1OC(O)C[C@H](O)[C@@H]1CCCCCCC(=O)O (some centres undefined) | -4&-4
COc1ccc(-n2c(C)c([N+](=O)[O-])c3ccc(O)cc32)cc1 | -11
CCOC(=O)c1sc(NC(=O)c2ccccc2)c(SC#N)c1C | -14
Cc1c(O)c(=O)n(-c2ccccc2)n1C | -25

molecule | HCMV NEC inh
Cc1ccc(C)n1-n1cnc2sc3c(c2c1=O)CCC3 | 3
O=C1CC(c2ccc(O)cc2)Oc2cc(O)cc(O)c21 (centres undefined) | -4&-35
CCCCCCCCCCCCCCCC(=O)OC | -30&-30
Brc1ccc2[nH]c3nc(SCCN4CCOCC4)nnc3c2c1 | -7&-15
COc1ccc(N(C(C)=O)C2C=CS(=O)(=O)C2)cc1 (centres undefined) | 6
C=C1CC2C3C=C(C)C4=CC(=O)CC[C@]4(C)C3CC[C@]2(C)[C@@]1(OC(C)=O)C(C)=O (some centres undefined) | -83
O=C1CCCc2oc3ccc(NS(=O)(=O)c4cccs4)cc3c21 | 19&1
CCCCn1c(CCCNC(=O)CC)nc2ccccc21 | 11

molecule | HCMV NEC inh
Cc1[nH]c2ccccc2c1C(c1ccccn1)N1CCC(C)CC1 (centres undefined) | 16&2
Cc1nc2ccccc2cc1C(=O)NCc1ccco1 | -10
Cc1nc2cc(NC(=O)c3ccc(Br)s3)ccc2s1 | 3
CCCCC[C@H](O)/C=C/[C@H]1C(=O)C[C@H](O)[C@@H]1C/C=C\CCCC(=O)O | 4&4&-11
COc1cc(-c2onc3ccc(Cl)cc23)cc(OC)c1OC | -23
O=C(NO)C12CC3CC(CC(C3)C1)C2 | -17
CC(O)c1nc2ccccc2n1CCOc1ccccc1 (centres undefined) | -9
CC(C)CC(NC(=O)C(O)C(N)Cc1ccccc1)C(=O)O (centres undefined) | -25

molecule | HCMV NEC inh
CCN1CCN(C(=O)C23CCC(C)(C(=O)O2)C3(C)C)CC1 (centres undefined) | -11
O=C(CSc1nc2ccccc2nc1-c1ccccc1)NCC1CCCO1 (centres undefined) | -33
C[N+]1(CC(O)COc2ccc(Br)cc2)CCCCC1 (centres undefined) | -12
COC(=O)CNC(=O)C(=O)OC | -7
CC1(C)CC(NC(=O)c2cc3ccccc3oc2=O)CC(C)(C)N1 | -36
CCC(=O)Nc1nc2cc3nc(NC(=O)CC)sc3cc2s1 | -23
CCc1ccccc1Nc1ncnc2c1cnn2-c1ccccc1 | 15
CC(C)N1Cc2cc(S(C)(=O)=O)ccc2N(CCN2CC=C(c3c[nH]c4cc(F)ccc34)CC2)S1(=O)=O | -42

molecule | HCMV NEC inh
N#CC1=C(SCC(=O)Nc2cccc(Cl)c2)NC2=C(C(=O)CCC2)C1c1ccco1 (centres undefined) | 2
CC(CCCC(C)(C)O)CCNCC1(CO)CCC1 (centres undefined) | -10
O=C(O)c1ccc(NS(=O)(=O)/C=C/c2ccccc2)cc1 | -31
Cc1cc(O)cc2oc(C(F)(F)F)c(-c3cnn(-c4ccccc4)c3)c(=O)c12 | -23

# Copied from the list:
# Cc1cc(O)cc2oc(C(F)(F)F)c(-c3cnn(-c4ccccc4)c3)c(=O)c12 in HCMV NEC inh = -23
# N#CC1=C(SCC(=O)Nc2cccc(Cl)c2)NC2=C(C(=O)CCC2)C1c1ccco1 (centres undefined) in HCMV NEC inh = 2
# CC(CCCC(C)(C)O)CCNCC1(CO)CCC1 (centres undefined) in HCMV NEC inh = -10
# O=C(O)c1ccc(NS(=O)(=O)/C=C/c2ccccc2)cc1 in HCMV NEC inh = -31
